# LASV entry inh: blocks Lassa virus binding to or entry into cells; Lassa virus pseudotype entry inhibition, cell reporter; control for the full effect not named in the record; Potency, µM (highest dose often 37.9 µM), inactives show at the top dose activity change, negative = inhibition, usual class: inhibitors; 1.2% of 300,000 active; AID 540256; active means well fitted inhibition curve with a large enough effect; inconclusive means small, poorly fitted or top-dose-only effect, or effect the other way; inactive means flat fitted curve, though single readings scatter; tested in HEK293 cells; further: on the % scale 0 is the no-effect control and ±100 the full control effect; nearly all actives have a fitted effect of over 50% in size; luciferase read-out
# RE007 growth inh: less growth of the S. pombe RE007 Vpr strain; 0.21% of 360,000 active; Potency, µM (series often up to 92.2 µM), for inactives: at the highest dose activity change, negative = less growth; S. pombe RE007 Vpr strain, BacTiter-Glo ATP luminescence, 24 h; control for the full effect not named in the record; active = well fitted falling curve with a large enough effect; inconclusive = small, poorly fitted or top-dose-only effect; inactive = no such curve, though single readings can be large or run the other way;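 further: on the % scale 0 is the no-effect control and ±100 the full control effect; nearly all actives have a fitted effect of over 50% in size; the assay follows cell death caused by Vpr and the record does not say whether a fall means rescue or toxicity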
#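 Fission yeast RE007 carrying one integrated HIV-1 vpr copy, seeded at OD 0.01 in PMG+AL medium with 23 nL pinned compound. Grown 24 h at 30 degrees; viability read by BacTiter-Glo luminescence after 5 min.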
# SARS PLpro yeast: SARS-CoV PLP inhibition in yeast. S. cerevisiae expressing SARS-CoV PLpro, growth rescue; control for the full effect not named in the record. Potency, µM (titrated, usually from 32.9 µM), without a hit: at the top dose activity, positive = growth rescue. 0.19% of 330,000 active; active means well fitted rising curve with a large enough effect; inconclusive means small, poorly fitted or top-dose-only effect; inactive means no such curve, though single readings can be large or run the other way; further: 0% is about no effect; nearly all actives have a fitted effect of over 55% in size; growth read by luminescence after 48 h
# StopGo reporter: lowers the luciferase signal of an FMDV 2A StopGo reporter. human cells with a luciferase reporter of 2A StopGo recoding; control for the full effect not named in the record. Potency, µM (highest dose often 57.9 µM), without a hit: at the top dose signal change, negative = less light. AID 1159524. 1.2% of 410,000 active; active = well fitted falling curve with a large enough effect; inconclusive = small, poorly fitted or top-dose-only effect; inactive = no such curve, though single readings can be large or run the other way; tested in HEK293T cells; further: on the % scale 0 is the no-effect control and ±100 the full control effect; nearly all actives have a fitted effect of over 45% in size; luciferase light after 4 h
# Cruzain inh Det: inhibitors of Trypanosoma cruzi cruzain with detergent | 0.43% of 200,000 active | purified cruzain, Z-FR-AMC fluorescence, 0.01% Triton | AID 1478 | Potency, µM, for inactives: max response, negative = inhibition, actives largely listed as inhibitors | P25779;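 further: plate controls were neutral wells for no effect and buffer without enzyme for full effect; nearly all actives have a fitted effect of over 40% in size; top concentration of the series not given in the record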
# Target sequence (P25779 123-467 limits assumed): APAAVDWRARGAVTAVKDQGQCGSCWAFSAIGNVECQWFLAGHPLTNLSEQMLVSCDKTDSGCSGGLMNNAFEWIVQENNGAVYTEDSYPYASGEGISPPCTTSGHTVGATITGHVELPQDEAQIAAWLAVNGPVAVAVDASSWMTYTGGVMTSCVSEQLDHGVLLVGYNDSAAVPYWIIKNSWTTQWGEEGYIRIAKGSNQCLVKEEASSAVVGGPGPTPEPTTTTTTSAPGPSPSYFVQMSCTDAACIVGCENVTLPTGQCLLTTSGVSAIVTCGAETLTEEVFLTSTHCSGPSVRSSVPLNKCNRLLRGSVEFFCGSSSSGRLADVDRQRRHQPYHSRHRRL
#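 Z-FR-AMC hydrolysis (2 uM substrate) by cruzain (1.5 nM) monitored kinetically at ex 360/em 450 nm after 15 min room-temperature compound exposure; 0.01% Triton X-100, pH 5.5, 5 mM DTT.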
# Cruzain noTriton: cruzain (T. cruzi) inhibition without detergent; AID 1476; 2.3% of 200,000 active; purified cruzain, Z-FR-AMC fluorescence, no detergent; Potency, µM, without a hit: max response, negative = inhibition, usual class: inhibitors;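 further: plate controls were enzyme without inhibitor for no effect and buffer without enzyme for full effect; nearly all actives have a fitted effect of over 40% in size; top concentration of the series not given in the record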
#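 Purified cruzain at 1.5 nM, pre-incubated 15 min with compound at room temperature in 100 mM sodium acetate pH 5.5, 5 mM DTT, 0.00005% Triton X-100. Reaction started with 2 uM Z-FR-AMC; AMC fluorescence increase over 60 s gives rate.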
# NS1 inh: blocks influenza NS1 protein function; S. cerevisiae slowed by influenza A NS1, growth recovery by OD600; Potency, µM (top dose mostly 46.1 µM), inactives show at the top dose activity, positive = more growth; 0.4% of 270,000 active; active means well fitted rising curve with a large enough effect; inconclusive means small, poorly fitted or top-dose-only effect; inactive means no such curve, though single readings can be large or run the other way; further: nearly all actives have a fitted effect of over 50% in size
#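 Growth recovery, yeast-based: influenza A NS1 expressed in S. cerevisiae causes slow growth, and suppressors are detected by OD600. The parent strain without NS1 is used as positive control.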
# Marburg entry inh: blocks Marburg virus binding to or entry into cells. 1.8% of 300,000 active. Potency, µM (top dose mostly 37.8 µM), without a hit: at the top dose activity change, negative = inhibition, most hits filed as inhibitors. Marburg virus pseudotyped entry inhibition, cell reporter; control for the full effect not named in the record; about a third of the inactives were read at about 46 µM; active = well fitted inhibition curve with a large enough effect; inconclusive = small, poorly fitted or top-dose-only effect, or effect the other way; inactive = flat fitted curve, though single readings scatter; tested in HEK293 cells; about a fifth of its hits are not listed in these tables; further: on the % scale 0 is the no-effect control and ±100 the full control effect; luciferase read-out
# * marks the source's active call; other numbers are inactive results; u = inconclusive; x = no result given; [ ] = dose if it differs, or a comment. Unless noted, the call rests on the fitted dose curve; in most records, active means well fitted curve in the direction sought with a large enough effect; inconclusive means small, poorly fitted or top-dose-only effect, or another doubt; inactive means no such curve, though single readings can be large; an effect the other way counts as inactive or inconclusive. Potency means the concentration at half of the fitted maximal effect.
Structure,NS1 inh,LASV entry inh,RE007 growth inh,SARS PLpro yeast,Cruzain noTriton,StopGo reporter,Marburg entry inh,Cruzain inh Det
COc1cc(C2c3c(n[nH]c3C)C(=O)N2c2ccc(C)cc2)ccc1O (centres undefined),-3%,-18%,23%,3%,0%,0%,-3%,1.2%
O=C(Nc1ccccc1C(=O)Nc1ccc(F)cc1)c1ccco1,1%,u,-3%,5%,x,-8%,27%[46.1 µM],x
O=c1[nH]nc(SCc2ccccc2)c(=O)[nH]1,8%,8%,-2%,0%,-1%,8%,-19%,-2.3%
CC1(c2ccc([N+](=O)[O-])cc2)NC(=O)N(CC(=O)Nc2ccc(N3CCCCC3)cc2)C1=O (centres undefined),x,0%,-19%,1%,x,-7%,-20%,x
COc1ccccc1C(CNC(=S)NCc1ccccc1)N1CCCC1 (centres undefined),-1%,0%[46.1 µM],-18%,1%,x,-5%,5.6µM*,x
COC(=O)CCCC1=CC2=C(c3ccccc3)C(=O)C(C)(OC(=O)C3CCCC3)C(=O)C2=CN1Cc1ccc(OC)cc1 (centres undefined),20%,x,-5%,2%,x,2%,u,x
O=C(Cn1nc(C(F)(F)F)cc1C1CC1)NCc1ccccc1F,-7%,6%,x,1%,5%,-15%,-18%,-0.4%
COC(=O)c1ccccc1NC(=O)CCc1ccccc1,-31%,u,-7%,8%,2%,11%,-10%,-2.5%
CCOc1ccc(-c2cccc(NS(=O)(=O)c3cc([N+](=O)[O-])ccc3Cl)c2)nn1,x,-3%,5%,-4%,x,59%[activator],8%,x
Cc1ccc(F)c(C2C3C=CCC(c4cccc(-c5ccc(N(C)C)cc5)c4)C3C(=O)N2Cc2ccccc2)c1 (centres undefined),u,x,-18%,-2%,x,-30%,x,x
Cn1c(=O)n(C)c2cc(N3CCOCC3)c(NC(=O)c3ccc(C(C)(C)C)cc3)cc21,x,-8%[46.1 µM],x,x,-7%,-14%,3%[46.1 µM],-0.5%
CC(=O)Nc1ccc(N2CCN(C(C)=O)CC2)cc1,u,-5%,7%,-2%,4%,x,1%,2.5%
Cc1cnc(NC(=O)C2CCCC2)s1,-76%,u,7%,1%,6%,28%,2%,3.7%
O=C(O)c1cc2nc(-c3ccc(F)cc3)cc(C(F)(F)F)n2n1,u,-5%,11%,x,-9%,-19%,4%,2.6%
COc1ccc(NC(=O)COc2ccc(/C=C/c3cc[n+](C)cc3)cc2OC)cc1,-4%,-4%,-19%,-2%,x,14%,-4%[46.1 µM],x
Cc1ccc(S(=O)(=O)n2ccc(-c3cccc(OCc4c(F)cccc4Cl)c3)n2)cc1,26%,8%,5%,u,7.9µM*,6%,6%,4.8%
Clc1ccccc1/C=N/c1cc(-c2ccccc2)nn1-c1ccccc1,u,-1%,-25%,8%,u,31%[activator],-5%,5.3%
O=C(O)CCCCCCCCCC[n+]1ccccc1,-2%,x,2%,-1%,x,-2%,x,x
C/C(=N\Nc1ccccn1)c1ccc(C#N)cc1,x,x,-5%,-1%,x,33%[activator],-2%[46.1 µM],x
Cc1noc(C)c1CSCC(=O)Nc1cccc(C(F)(F)F)c1,x,5%,-5%,-4%,x,19%,16%,x
COc1ccc(-c2cc(C(=O)OC3CCOC3=O)c3ccccc3n2)cc1OC (centres undefined),-12%,-8%,-10%,12%,u,9%,23%,-3.2%
COC(=O)c1c(-c2ccc(Cl)cc2)noc1N1CCN(c2cccc(C(F)(F)F)c2)CC1,x,-19%[46.1 µM],x,x,-9%,u,x,3.7%
CCN(CC)C(=O)c1cc(C(C)(C)C)c(O)c(C(C)(C)C)c1,-7%,-21%,0%,-4%,19%,-20%,-9%,-3.5%
O=C(N/N=C/c1coc2ccccc2c1=O)c1cc(Br)ccc1O,4%,u,-6%,-4%,x,11%,0%,x
CCOc1ccccc1NC(=O)Nc1ccccc1OCc1cc(=O)n2ccccc2n1,x,-13%[46.1 µM],x,x,u,-7%,x,0.6%
C/C(=N\NC(=O)CCCNc1ccccc1)c1ccncc1,-3%,u,u,1%,x,-6%,1%[46.1 µM],x
c1ccc2c(c1)ccc1nnc(-c3ccc4c(c3)OCO4)n12,-5%,19%,-4%,2%,-3%,0%,-7%,4.7%
O=C(O)C(Cc1ccccc1)NC(=O)C(c1ccccc1)c1ccccc1 (centres undefined),12%,18%[46.1 µM],-4%,0%,x,-22%,3%[46.1 µM],x
Cc1ccc(NC(=O)c2ccc(-n3cncn3)c([N+](=O)[O-])c2)cc1F,x,5%,-5%,0%,x,-27%,0%,x
O=C(O)C1CCN(C(=O)CCN2C(=O)S/C(=C\c3ccccc3)C2=O)CC1,-12%,x,-13%,5%,x,5%,x,x
CCOC(=O)c1cnc(-c2ccccc2)[nH]c1=O,-72%,3%,4%,-10%,2%,23%,2%[46.1 µM],1.5%
CC1CCCC(C)N1C(=O)COc1ccc(C(=O)Nc2ccccc2N2CCOCC2)cc1 (centres undefined),x,u,0%,1%,x,-25%,u,x
COc1ccc(CNC(=O)N2CCN(c3ccccc3)CC2)cc1,8%,-10%,2%,-5%,x,18%,3%[46.1 µM],x
O=C(COC(=O)c1ccc(NS(=O)(=O)c2ccc(F)c(F)c2)cc1)NCC1CCCO1 (centres undefined),x,-1%[46.1 µM],-7%,1%,x,8%,-3%[46.1 µM],x
Cc1c(/C=N/NC(=O)c2cccnc2)cc(C#N)n1C,2%,x,13%,0%,x,10%,4%[46.1 µM],x
CCOc1ccc(S(=O)(=O)Nc2cccc(C(=O)NCC(c3ccc(OC)cc3)N3CCOCC3)c2)cc1 (centres undefined),-37%,-9%,-18%,-3%,x,0%,-23%,x
Cc1nc(NC(C)(C)CO)c([N+](=O)[O-])cc1[N+](=O)[O-],3%,11%,-7%,6%,5%,-11%,-2%[46.1 µM],-7.3%
Cc1ccc(NNC(=O)c2ccno2)c(C)c1,-4%,u,105%,-1%,x,-10%,8.9µM*,x
O=C(COC(=O)c1cc(S(=O)(=O)N2CCc3ccccc3C2)ccc1Cl)NCc1ccco1,14%,u,11%,11%,u,-6%,-20%[46.1 µM],-9.5%
O=C(Nc1ccc(N=Nc2ccccc2)cc1)c1ccccc1Cl,-10%,u,13%,7%,-1%,81%[activator],u,-5.5%
O=C(CN(C(=O)c1csnn1)c1ccc(Br)cc1)NC1CCCCC1,-1%,29%[46.1 µM],-7%,2%,x,11%,-13%[46.1 µM],x
Cc1ccc(C(=O)c2sc(Nc3ccc(F)cc3)c(C#N)c2N)cc1,x,-25%[46.1 µM],x,x,u,0%,2%[46.1 µM],-8.7%
O=C(c1ccc(F)cc1)c1cn(Cc2ccc(F)cc2)c2cc3c(cc2c1=O)OCCO3,-14%,-4%,7%,11%,-8%,-22%,1%,-5.9%
Cc1c(C(Nc2ccccn2)c2ccc(Cl)cc2)c(=O)n(-c2ccccc2)n1C (centres undefined),-4%,0%,11%,x,-2%,-7%,u,-3.7%
O=C1C2C(c3ccccc3)CC=CC2[C@H](c2ccc(C(F)(F)F)cc2)N1Cc1ccccc1 (some centres undefined),-57%,x,-9%,-8%,x,0%,x,x
CCOC(=O)c1c(NC(=O)CCC(=O)N(CC)CC)sc2c1CC(C)(C)OC2,5%,x,1%,-1%,x,-2%,x,x
C/C(CC(=O)NC(C)C)=N\NC(=O)C(c1ccccc1)c1ccccc1,6%,12%[46.1 µM],4%,0%,x,-11%,-4%[46.1 µM],x
O=C(N[C@@H]1C[C@H]2CC[C@@H]1C2)c1ccco1,7%,9%[46.1 µM],5%,1%,x,2%,13%[46.1 µM],x
CCS(=O)(=O)N1CCC(C(=O)Oc2ccc(Br)cc2)CC1,1%,0%[46.1 µM],2%,-12%,x,3%,-3%[46.1 µM],x
COc1ccc(NC(=O)c2ccccc2C(=O)N2CCCCC2)cc1,-8%,14%,3%,1%,x,36%[activator],22%[46.1 µM],x
COc1cccc(C2/C(=C(\O)c3ccc4c(c3)OCCO4)C(=O)C(=O)N2CCCn2ccnc2)c1 (centres undefined),-2%,x,-8%,-3%,x,15%,x,x
COc1cc(-c2noc(C)c2/C=C/c2ccc(C(=O)O)cc2)cc(OC)c1OC,1%,x,-3%,-2%,x,5%,x,x
COc1ccc(C(CNC(=O)CNC(=O)c2cccc(C)c2)N2CCOCC2)cc1 (centres undefined),x,3%,18%,-2%,x,-23%,17%,x
COC(=O)CCN(Cc1cc(OC)ccc1OC)S(=O)(=O)c1ccccc1Br,x,x,11%,-24%,x,-17%,u,x
CC(=O)Nc1ccccc1-c1nc2ccccc2n(CC(=O)c2ccc(Br)cc2)c1=O,x,-7%[46.1 µM],x,x,-10%,-22%,1%[46.1 µM],-4.1%
Cc1cc(C(=O)NC2CCN(Cc3ccccc3)CC2)n[nH]1,-5%,x,-7%,3%,x,-2%,x,x
O=C(NNS(=O)(=O)c1ccccc1)c1sccc1-n1cccc1,5%,2%,-3%,6%,-1%,10%,19%,11%
COc1ccccc1OCCCn1c(=O)sc2ccccc21,-24%,7%,u,-3%,-13%,22%,2%,-6.3%
C[C@]12CCC3C(CC[C@H]4C[C@H](O)CC[C@]34C)C1C[C@@H](O)[C@@H]2O (some centres undefined),x,-15%[46.1 µM],4%,1%,x,-7%,11%[46.1 µM],x
C/C(CC(=O)NC1CCCCCC1)=N\NC(=O)c1cnccn1,-6%,14%,4%,3.5µM*,-2%,6%,u,-1.1%

# (more compounds)
Structure,NS1 inh,LASV entry inh,RE007 growth inh,SARS PLpro yeast,Cruzain noTriton,StopGo reporter,Marburg entry inh,Cruzain inh Det
O=C(Cn1cc(C(=O)C2CCCCC2)c2ccccc21)Nc1ccccc1Cl,x,16%[46.1 µM],x,x,-10%,-25%,-29%[46.1 µM],-6.3%
O=C(c1nc2ccccn2c1CNCCCn1nnc2ccccc21)N1CCOCC1,3%,x,-8%,0%,x,-9%,x,x
CCNC(=S)NNC(=O)c1cccn(Cc2ccc(Cl)cc2)c1=O,4%,-2%,-20%,2%,-1%,7%,u,2.5%
COc1ccc(C(=O)COC(=O)CN2C(=O)C3C4C=CC(C5CC45)C3C2=O)cc1 (centres undefined),-24%,9%,7%,1%,8%,-2%,3%,-4.0%

# Compound activity as filed in PubChem BioAssay.
